# SARS PLpro yeast – inhibitors of SARS-CoV papain-like protease in yeast; 330,000 tested, 0.19% active; AID 485353; S. cerevisiae expressing SARS-CoV PLpro, growth rescue; control for the full effect not named in the record; Potency, µM (doses to about 32.9 µM), inactives show at the top dose activity, positive = growth rescue; note: 0% is about no effect; nearly all actives have a fitted effect of over 55% in size; growth read by luminescence after 48 h
# NS1 inh – influenza NS1 inhibition; 270,000 tested, 0.4% active; S. cerevisiae slowed by influenza A NS1, growth recovery by OD600; Potency, µM (top dose mostly 46.1 µM), for inactives: top-dose activity, positive = more growth; note: actives are rising curves; nearly all actives have a fitted effect of over 50% in size
#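 S. cerevisiae expressing influenza A NS1, grown in glucose, washed, then diluted 1:100 into pH 6.0 -URA galactose medium with 23 nl compound. Growth recovery read as OD600; NS1-free strain serves as control.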
# Cruzain inh noDet – blocks cruzain activity in detergent-free assay; P25779; purified cruzain, Z-FR-AMC fluorescence, no detergent; Potency, µM, for inactives: max response, negative = inhibition, most hits filed as inhibitors; 200,000 tested, 2.3% active; active = well fitted curve in the direction sought with a large enough effect; inconclusive = small, poorly fitted or top-dose-only effect, or another doubt; inactive = no such curve, though single readings can be large; an effect the other way counts as inactive or inconclusive;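 note: plate controls were enzyme without inhibitor for no effect and buffer without enzyme for full effect; nearly all actives have a fitted effect of over 40% in size; top concentration of the series not given in the record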
# Target sequence (P25779 123-467 limits assumed): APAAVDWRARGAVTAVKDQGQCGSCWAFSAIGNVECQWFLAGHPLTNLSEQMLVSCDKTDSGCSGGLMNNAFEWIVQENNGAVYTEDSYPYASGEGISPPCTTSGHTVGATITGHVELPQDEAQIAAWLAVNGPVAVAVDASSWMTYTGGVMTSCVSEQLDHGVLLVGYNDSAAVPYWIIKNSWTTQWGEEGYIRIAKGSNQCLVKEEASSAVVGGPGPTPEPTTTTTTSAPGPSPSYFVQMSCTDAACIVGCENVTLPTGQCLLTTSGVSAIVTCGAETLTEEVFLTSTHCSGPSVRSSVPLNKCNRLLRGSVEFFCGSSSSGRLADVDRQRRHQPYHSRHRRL
#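 Purified cruzain at 1.5 nM, pre-incubated 15 min with compound at room temperature in 100 mM sodium acetate pH 5.5, 5 mM DTT, 0.00005% Triton X-100. Reaction started with 2 uM Z-FR-AMC; AMC fluorescence increase over 60 s gives rate.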
# Cruzain Triton – blocks cruzain activity in presence of Triton detergent; Potency, µM, for the others: max response, negative = inhibition, usual class: inhibitors; 200,000 tested, 0.43% active; purified cruzain, Z-FR-AMC fluorescence, 0.01% Triton; active = well fitted curve in the direction sought with a large enough effect; inconclusive = small, poorly fitted or top-dose-only effect, or another doubt; inactive = no such curve, though single readings can be large; an effect the other way counts as inactive or inconclusive;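 note: plate controls were neutral wells for no effect and buffer without enzyme for full effect; nearly all actives have a fitted effect of over 40% in size; top concentration of the series not given in the record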
#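 Compounds were screened in titration against cruzain (1.5 nM) with 0.01% Triton X-100 to counter colloidal aggregation. Activity was the AMC fluorescence increase over 60 s after adding 2 uM Z-FR-AMC at pH 5.5.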
# LASV entry inh – inhibitors of Lassa virus binding or cell entry; Potency, µM (top dose mostly 37.9 µM), without a hit: at the top dose activity change, negative = inhibition, hits mostly inhibitors; AID 540256; Lassa virus pseudotype entry inhibition, cell reporter; control for the full effect not named in the record; 300,000 tested, 1.2% active; active means well fitted inhibition curve with a large enough effect; inconclusive means small, poorly fitted or top-dose-only effect, or effect the other way; inactive means flat fitted curve, though single readings scatter; tested in HEK293 cells; note: % is set by controls: 0 for no effect and ±100 for the full control effect; nearly all actives have a fitted effect of over 50% in size; luciferase read-out
# RE007 growth inh – less growth of the S. pombe RE007 Vpr strain; 360,000 tested, 0.21% active; S. pombe RE007 Vpr strain, BacTiter-Glo ATP luminescence, 24 h; control for the full effect not named in the record; Potency, µM (series often up to 92.2 µM), for inactives: at the highest dose activity change, negative = less growth; active = well fitted falling curve with a large enough effect; inconclusive = small, poorly fitted or top-dose-only effect; inactive = no such curve, though single readings can be large or run the other way;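 note: % is set by controls: 0 for no effect and ±100 for the full control effect; nearly all actives have a fitted effect of over 50% in size; the assay follows cell death caused by Vpr and the record does not say whether a fall means rescue or toxicity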
#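 Fission yeast strain RE007, carrying one chromosomally integrated HIV-1 vpr copy, was seeded at OD 0.01 in PMG+AL medium with 23 nL pinned compound. After 24 h at 30 °C and 99% humidity, viability was read by BacTiter-Glo luminescence.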
# 2A StopGo – lowers the luciferase signal of an FMDV 2A StopGo reporter. 410,000 tested, 1.2% active. Potency, µM (doses to about 57.9 µM), for inactives: at the highest dose signal change, negative = less light. AID 1159524. human cells with a luciferase reporter of 2A StopGo recoding; control for the full effect not named in the record; active = well fitted falling curve with a large enough effect; inconclusive = small, poorly fitted or top-dose-only effect; inactive = no such curve, though single readings can be large or run the other way; tested in HEK293T cells; note: % is set by controls: 0 for no effect and ±100 for the full control effect; nearly all actives have a fitted effect of over 45% in size; luciferase light after 4 h
# MARV entry inh – blocks Marburg virus binding to or entry into cells. 300,000 tested, 1.8% active. Potency, µM (doses to about 37.8 µM), for the others: at the top dose activity change, negative = inhibition, hits mostly inhibitors. Marburg virus pseudotyped entry inhibition, cell reporter; control for the full effect not named in the record; about a third of the inactives were read at about 46 µM; active = well fitted inhibition curve with a large enough effect; inconclusive = small, poorly fitted or top-dose-only effect, or effect the other way; inactive = flat fitted curve, though single readings scatter; tested in HEK293 cells; about a fifth of its hits are not listed in these tables; note: % is set by controls: 0 for no effect and ±100 for the full control effect; luciferase read-out
# The depositor's hits bear a star; ? = inconclusive; · = not tested or not shown; & = joins results of further samples; [ ] = dose if it differs, or a comment. Unless noted, calls come from the whole dose curve; as a rule, active means well fitted rising curve with a large enough effect; inconclusive means small, poorly fitted or top-dose-only effect; inactive means no such curve, though single readings can be large or run the other way. Potency is the fitted concentration of half-maximal effect. Random draw from the library; overall some 4.8% were active at least once.
SMILES,SARS PLpro yeast,NS1 inh,Cruzain inh noDet,Cruzain Triton,LASV entry inh,RE007 growth inh,2A StopGo,MARV entry inh
O=C(c1ccc(Cl)nc1)N1CCN(C/C=C/c2ccccc2)CC1,-2%,·,·,·,?,-16%,?,?
CCOc1ccccc1C(=O)Nc1ccc(-n2nncc2-c2ccccc2)cc1,·,·,-12%,-0.7%,28%[46.1 µM],·,?,·
Nc1nonc1-n1nnc(C(=O)N/N=C/c2ccccc2Cl)c1CSc1ccccc1,-1%,-1%,·,·,-5%,5%,5%,1%[46.1 µM]
O=C(Nc1nnc(C2=COCCO2)o1)c1cccc(Br)c1,-3%,-84%,·,·,1%[46.1 µM],3%,-4%,?
O=C(CCS(=O)(=O)c1ccccc1)Nc1ccc2c(c1)C(=O)NC2=O,0%,·,·,·,16%,-9%,26%,9%
CN(C)S(=O)(=O)c1ccc(NC(=O)c2cc(-c3cccs3)nc3ccccc23)cc1,19%,-1%,?,-10%,?,5%,-12%,?
COc1ccc(NC(=O)CC2C(=O)N(C)C(=S)N2Cc2ccco2)cc1 (stereo not given),4%,6%,6%,-3.4%,-11%,-3%,-14%,-28%
O=c1[nH]cc(N=Cc2cc(Cl)cc(Cl)c2O)c(=O)[nH]1,-3%,10%,·,·,·,-21%,4%,·
CC[C@H](C)[C@@H]1NC(=O)c2cc([N+](=O)[O-])cc(F)c2NCCCC[C@@H](C(N)=O)NC(=O)[C@H](CCCCN)NC1=O,-7%,14%,-8%,-6.3%,0%,5%,2%,3%
O=C(Cc1ccccc1[N+](=O)[O-])NCCc1ccc(F)cc1,9%,12%,·,·,·,3%,22%,·
CSCCC(NS(=O)(=O)c1ccc2c(c1)Cc1cc(S(=O)(=O)NC(CCSC)C(=O)O)ccc1-2)C(=O)O (stereo not given),-2%,1%,·,·,-1%,2%,-1%,10%[46.1 µM]
C/C(=C\c1ccccc1)C(=O)Nc1nccs1,-1%,·,·,·,12%,-10%,19%,?
CCOc1ccc(-n2cc(C(=O)c3cc(Cl)ccc3O)cc(C#N)c2=O)cc1,-9%,·,·,·,8%,-2%,-19%,10%[46.1 µM]
CS(=O)(=O)c1ncc(N(Cc2ccco2)Cc2cccs2)c(C(=O)Nc2ccccc2F)n1,·,·,-14%,-4.1%,-17%[46.1 µM],·,-23%,-29%[46.1 µM]
Cc1ccc(N(C(=O)Cn2nnc3ccccc32)C(C(=O)NCc2ccco2)c2ccc(C)o2)cc1 (stereo not given),-2%,-33%,-7%,-7.1%,1%,-15%,-3%,?
O=C(O)C1Cc2ccccc2CN1C(=O)COc1ccc(Cl)cc1 (stereo not given),1%,·,·,·,-31%,-10%,-9%,-1%
CCCCCc1cc(=O)oc2c(C(CCN3CCCC(C)C3)c3ccc(OC)cc3)c(OC)cc(OC)c12 (stereo not given),1%,4%,·,·,·,6%,-3%,·
COc1ccc(NC(=O)NC2(C(=O)N3CCCCC3)CCCCC2)cc1,0%,-1%,·,·,-1%[46.1 µM],-14%,-8%,-8%[46.1 µM]
O=C(NCc1cccnc1)C(=O)NCC1OCCN1S(=O)(=O)c1ccc(F)cc1 (stereo not given),-4%,?,9%,3.8%,-2%,-1%,-25%,4%
O=C(N/N=C/c1ccncc1)c1ccc2c(c1)OCO2,-7%,·,·,·,6%,-14%,58%[activator],7%[46.1 µM]
CC1CCc2nn(CC(=O)NCCN3CCCCC3C)cc2C1 (stereo not given),-2%,15%,-2%,-1.7%,·,21%,-19%,·
O=C(c1ccncc1)N1CCN(c2ccc(F)cc2)CC1,12%,-4%,4%,1.8%,-8%,18%,0%,2%
CCCc1nnc(SCC(=O)Nc2ccc(OC)cc2)n1N,-1%,2%[9.22 µM],-13%,6.6%,4%,-10%,3%,0%
CC(C)(C)c1ccc(/C=C(\C#N)C(=O)NCCN2CCOCC2)cc1,0%,-3%,·,·,·,-8%,?,9%[46.1 µM]
COc1cc(OC)cc(C(=O)NNC(=O)c2ccc3ccccc3n2)c1,1%,·,·,·,?,-19%,2%,?

# Reprinted at random: five records from the list, in no set order.
SMILES,SARS PLpro yeast,NS1 inh,Cruzain inh noDet,Cruzain Triton,LASV entry inh,RE007 growth inh,2A StopGo,MARV entry inh
CC[C@H](C)[C@@H]1NC(=O)c2cc([N+](=O)[O-])cc(F)c2NCCCC[C@@H](C(N)=O)NC(=O)[C@H](CCCCN)NC1=O,-7%,14%,-8%,-6.3%,0%,5%,2%,3%
Nc1nonc1-n1nnc(C(=O)N/N=C/c2ccccc2Cl)c1CSc1ccccc1,-1%,-1%,·,·,-5%,5%,5%,1%[46.1 µM]
CN(C)S(=O)(=O)c1ccc(NC(=O)c2cc(-c3cccs3)nc3ccccc23)cc1,19%,-1%,?,-10%,?,5%,-12%,?
O=C(c1ccncc1)N1CCN(c2ccc(F)cc2)CC1,12%,-4%,4%,1.8%,-8%,18%,0%,2%
O=C(CCS(=O)(=O)c1ccccc1)Nc1ccc2c(c1)C(=O)NC2=O,0%,·,·,·,16%,-9%,26%,9%

# (further entries)
SMILES,SARS PLpro yeast,NS1 inh,Cruzain inh noDet,Cruzain Triton,LASV entry inh,RE007 growth inh,2A StopGo,MARV entry inh
O=C(COc1ccccc1)Nc1cc2c3c(c1)CC(=O)N3CCC2,0%,·,·,·,?,-3%,48%[activator],26%
c1ccc(-c2csc3ncn4nnnc4c23)cc1,-3%,-7%,-9%,5.2%,4%,43%,27%,22%
O=C(c1ccc(Cl)c(S(=O)(=O)N2CCOCC2)c1)N1CCCC1,2%,2%,·,·,-7%,-2%,-11%,6%[46.1 µM]
CCCCc1c(C)[nH]c2nc3ccccc3n2c1=O,-10%,-80%,·,·,30%,6%,42%[activator],4%
CCN1CCN(c2cc3c(nn2)Oc2ccccc2N3C)CC1,-1%,-2%,7%,-7.1%,2%,-16%,21%,?
CC(C)NC(=O)CCC(=O)N1Cc2ccccc2Oc2ncccc21,·,·,3%,2.0%,3%[46.1 µM],·,-3%,·
O=C(CCN1C(=O)c2ccccc2C1=O)N1CCN(C2c3ccccc3-c3ccccc32)CC1,-7%,1%,11%,4.9%,10%,8%,·,-4%
CC1CCCCN1C(=O)CSc1n[nH]c(-c2ccccc2)n1 (stereo not given),·,·,-5%,2.6%,?,·,28%,·
O=C(CNS(=O)(=O)c1cccc(Br)c1)NCCCc1ccccc1,14%,-14%,·,·,?,-21%,9%,-2%
Cc1ccccc1NC(=O)CSc1ccc(-c2cccnc2)nn1,-2%,7%,·,·,8%,-15%,-11%,-2%
O=C(/C=C/c1ccccc1)Nc1ccc(Br)cn1,-2%,-7%,·,·,·,-15%,36%[activator],·
O=C(Cc1ccccc1)Nc1nc2ccccc2[nH]1,6%,0%,2%,0.2%,?,2%,76%[activator],?
Cc1ccc2oc(=O)n(CCNC(=O)Nc3ccc(Cl)cc3)c2c1,·,·,-3%,-4.8%,-8%[46.1 µM],·,-23%,0%[46.1 µM]
CC1CCCCC1NC(=O)CN1C(=O)NC(C)(c2ccc(OC(F)F)cc2)C1=O (stereo not given),-14%,-5%,12%,2.4%,8%,-5%,-8%,-2%
Oc1ccccc1N1CCN(C(=S)NCc2ccccc2)CC1,0%,4%,·,·,-16%[46.1 µM],-4%,-3%,3%[46.1 µM]
N#Cc1c(NC(=O)CCCN2C(=O)c3ccccc3C2=O)oc(-c2ccccc2)c1-c1ccccc1,2%,-18%,?,-4.1%,-15%,2%,-10%,16%&16%
CC(=O)Nc1cccc([As](=O)(c2cccc(NC(C)=O)c2)c2cccc(NC(C)=O)c2)c1,0%,2%,·,·,·,5%,-24%,·
O=C(COC(=O)c1ccccc1-c1ccccc1[N+](=O)[O-])c1ccccc1,-7%,3%,-6%,-6.9%,-17%,-1%,12%,-3%
COc1cc2[nH]c(=S)nc(NCCc3ccc(S(N)(=O)=O)cc3)c2cc1OC,2%,·,·,·,18%[46.1 µM],-7%,-12%,20%[46.1 µM]
COc1cccc(/C=N/n2c(N)c(S(=O)(=O)c3cccs3)c3nc4ccccc4nc32)c1,4%,-6%,-28%,-5.0%,1%,-11%[3.69 µM],19%,-1%
O=C(N/N=C/c1ccc(OC(F)F)cc1)c1ccc(CSc2nc3ccccc3[nH]2)cc1,?,15%,10%,-3.7%,?,0%,?,0%[46.1 µM]
COc1ccc2c(c1)c1c(c(=O)n(-c3ccc(F)c(Cl)c3)c(=O)n1CC(=O)N1CCCC1)n2C,·,·,4%,-1.5%,6%[46.1 µM],·,-3%,·
CC(Cl)C(=O)N1c2ccccc2CCc2ccccc21 (stereo not given),0%,5%,·,·,·,6%,-29%,·
Cc1nn(-c2ccc(Cl)cc2Cl)c(C)c1C(=O)O,1%,·,·,·,8%,1%,-11%,-8%[46.1 µM]
CS(=O)(=O)Nc1ccc(N2CCN(c3ccc(C(F)(F)F)cn3)CC2)nc1,0%,-1%,·,·,5%,-5%,?,-22%

# Remaining list, next part
SMILES,SARS PLpro yeast,NS1 inh,Cruzain inh noDet,Cruzain Triton,LASV entry inh,RE007 growth inh,2A StopGo,MARV entry inh
CCOC(=O)c1c(NC(=O)CN2C(=O)CN(C)C2=O)sc(C)c1C,4%,·,·,·,9%[46.1 µM],0%,3%,29%[46.1 µM]
COCCCN=CC1=C(O)CC(C)(C)CC1=O,6%,0%,-10%,3.8%,-17%[14.3 µM],-10%,19%,-15%
Cc1ccc(S(=O)(=O)NC(CC(N)=O)C(=O)O)cc1 (stereo not given),-1%,-2%,1%,4.2%,?,22%,0%,?
CCCOc1ccc(C(=O)C(CN2CCOCC2)c2ccccc2)cc1 (stereo not given),-58%,-3%,-14%,-1.3%,?,0%,14µM*,16µM*
CCOc1cc(/C=N/NC(=O)c2nnn(-c3nonc3N)c2C)ccc1OCc1cccc(F)c1,2%,6%,·,·,·,-7%,-10%,·
C=CCn1c(SCc2ccc(Cl)cc2)nc2cc(C(=O)N3CCC(C(N)=O)CC3)ccc2c1=O,-3%,6%,?,-16%,3%,8%,-35%,12%
O=C(CCC(=O)c1cccs1)NCc1cccc(Cl)c1,·,·,·,·,?,11%,-13%,1%

# From PubChem BioAssay
